MT1-MMP act inh: blockers of MT1-MMP proenzyme processing, primary screen, HT1080 RFP-PRO-GFP cells, GFP/RFP fluorescence; GFP/RFP ratio fluorescence, overnight; percent of plate control window, DMSO zero; GFP/RFP ratio change, % at 20 µM; Matrix metalloproteinase-14 (Homo sapiens), P50281; 360,000 tested, 0.061% active;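 active means GFP/RFP ratio change of at least 30% with cell ATP level not reduced by more than half and red fluorescence within 50% of control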; further: strong numbers were not always called active
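Test system: HT1080 cells expressing an RFP-PRO-GFP fluorescent reporter construct / Compound dosing: single-point 20 µM compound, 1% DMSO / Schedule: cells overnight before dosing, compound overnight, 37 °C, 5% CO2 / Evaluation: GFP/RFP fluorescence ratio / Control set: DMSO and RFP-L50D-GFP cell wells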
UUG fidelity: modulators of yeast start codon fidelity, primary screen, whole organism, S. cerevisiae, single point, plate reader | S. cerevisiae UUG-firefly luciferase reporter, luminescence/redox ratio | activity score, % at 18.7 µM | 350,000 tested, 0.13% active | AID 602363, 2012;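 active means replicate mean at a twofold rise or more, about +100% in these data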;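 further: firefly luciferase made from a UUG start codon reports start codon fidelity; reporter light over untreated wells divided by growth signal over untreated wells; some hits fall short of that in this replicate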
CSC inhib: cancer stem cell viability inhibitors, primary screen, luminescence | 300,000 tested, 1.1% active | cancer stem cell-like cells viability | inhibition, % at 7.5 µM;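 active means mean at 75% or more and at least half the replicates too; inconclusive means mean and replicates disagree; tested in HMLE shEcad cells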;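 further: 0% = median of negative and 100% = median of positive control wells; the first replicate is given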
Rce1 inhib: yeast Rce1p protease inhibitors, primary screen, biochemical, fluorescence, cell-free homogeneous; calls only; yeast membranes, quenched prenylated peptide cleavage fluorescence; CAAX prenyl protease 2 (Saccharomyces cerevisiae (strain ATCC 204508 / S288c)), Q03530; 290,000 tested, 0.27% active;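 active means fall in fluorescence gain of 50% or more versus controls, with final raw signal at or below 3038400; inconclusive means same 50% fall but final raw signal above 3038400; inactive means fall in fluorescence gain under 50%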;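 further: plate controls were neutral control wells for no effect and wells lacking membranes for full effect; tested at 10 µM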
Target sequence (Q03530 whole entry, looked up): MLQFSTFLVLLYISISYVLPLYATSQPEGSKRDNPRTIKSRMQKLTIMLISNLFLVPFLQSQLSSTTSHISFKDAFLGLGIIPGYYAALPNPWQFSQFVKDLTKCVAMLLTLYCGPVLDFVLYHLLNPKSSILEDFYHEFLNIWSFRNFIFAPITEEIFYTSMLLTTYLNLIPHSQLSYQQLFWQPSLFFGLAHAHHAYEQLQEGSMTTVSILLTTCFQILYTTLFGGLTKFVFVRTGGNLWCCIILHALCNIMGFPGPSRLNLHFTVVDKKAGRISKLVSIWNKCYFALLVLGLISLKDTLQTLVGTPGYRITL
Env fusion inh: inhibitors of HIV-1 Env-driven cell-cell fusion, primary screen, HeLa-JRFL effector, CEM21 target cells, luciferase. inhibition, % at 12.3 µM. 360,000 tested, 1.1% active;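 active means mean replicate inhibition score of at least 50 and every replicate individually at or above 50; inconclusive means only one of the two criteria met; inactive means mean below 50 and not all replicates reaching 50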;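 further: 0% = plate neutral controls and 100% = maraviroc near 300 nM; one replicate is shown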
eIF4H inh: human eIF4H binding inhibitors, primary screen, translation initiation inhibitor project, biochemical, uHTS, fluorescence polarization; Eukaryotic translation initiation factor 4H (Homo sapiens), Q15056; eIF4H fluorescence polarization binding assay; inhibition, % at 35 µM; 290,000 tested, 0.94% active; AID 2012, 2009;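 active means 50% or more with normal probe brightness, or confirmed in later tests; inconclusive means above 50% with abnormal brightness, or retests that disagree; inactive means below 50% or failed in later tests; about a fifth of its hits are not listed in these tables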;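 further: calls also rest on retests at 20 µM and on dose response follow-up; 0% = protein and probe with vehicle and 100% = probe without protein; strong numbers were not always called active; many hits fall short of the cut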
PABP FP inh: PABP poly(A) RNA binding inhibitors, primary screen, biochemical, fluorescence polarization, uHTS | Polyadenylate-binding protein 1 (Homo sapiens), P11940 | inhibition, % at 35 µM | 290,000 tested, 1% active;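 active means 50% or more with normal probe brightness, or confirmed in later tests; inconclusive means above 50% with abnormal brightness, or retests that disagree; inactive means below 50% or failed in later tests; about a fifth of its hits are not listed in these tables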;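 further: calls also rest on retests at 20 µM and on dose response follow-up; controls were probe without protein and protein plus probe with vehicle; some compounds called inactive have numbers as strong as hits; many hits fall short of the cut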
MT1-MMP act inh RFP: recorded beside MT1-MMP act inh, whose call it bears; RFP signal change, %; measured here: RFP expression control read;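 0 = vehicle wells; hits needed this value within 50% of zero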
Numbers without * were called inactive; i = inactive; ? = inconclusive; · = no result given.

SMILES | MT1-MMP act inh | MT1-MMP act inh RFP | UUG fidelity | CSC inhib | Rce1 inhib | Env fusion inh | eIF4H inh | PABP FP inh
O=C(Cn1nnc2ccccc21)NNC(=O)c1ccccc1 | 9 | 8 | -9 | -9 | i | -19 | -3 | 5
O=C(OCc1cn([C@H]2C[C@H](c3ccc(Cl)cc3)N(C(=O)C3CCCCC3)C[C@@H]2O)nn1)c1ccccc1 | 1 | 3 | -18 | · | · | 13 | · | ·
CCNc1ccc(S(=O)(=O)N(C)C)cc1[N+](=O)[O-] | · | · | · | -1 | i | -1 | 2 | 30
COc1cccc(C(=O)CN2CCC(NC(=O)NC3CCCCC3)CC2)c1 | 2 | 9 | -3 | · | i | -7 | -15 | -5
Cc1ccc(Nc2nc(N)c([N+](=O)[O-])c(NCc3ccco3)n2)cc1 | -5 | -8 | · | 14 | i | -38 | 4 | -1
NCCSc1c(-c2ccc(Cl)cc2)[nH]c2ccccc12 | -4 | -1 | · | 17 | i | -11 | 2 | -11
C/C(=N\Nc1nc2ccccc2[nH]1)c1ccc2c(c1)OCCO2 | 13 | 6 | · | 6 | i | -48 | 11 | -3
COc1ccc(C(=O)NCC2(c3ccccc3)CCCC2)c(OC)c1 | -4 | -17 | -4 | 83* | i | 14 | -9 | 14
O=C1OC(c2ccccc2)(c2ccc(O)cc2)c2ccccc21 (stereo not given) | -2 | 2 | -10 | · | · | -12 | · | ·
CC1=C(C(=O)OCc2ccccc2)C(c2ccccc2[N+](=O)[O-])NC(=O)N1C (stereo not given) | 1 | 0 | -22 | -6 | i | 3 | ? | ?
COc1ccc(CCC(=O)NNC(=O)c2ccccn2)cc1OC | -1 | 1 | -3 | · | · | -39 | · | ·
O=C(CN(C(=O)Cn1nnc(-c2cccs2)n1)c1ccc2c(c1)OCCO2)NCc1ccccc1 | -7 | -1 | -18 | -6 | i | 27 | 0 | 27

Three of the entries above in order of the MT1-MMP act inh value, highest first:
Molecule	MT1-MMP act inh	MT1-MMP act inh RFP	UUG fidelity	Rce1 inhib	Env fusion inh
C/C(=N\Nc1nc2ccccc2[nH]1)c1ccc2c(c1)OCCO2	13	6	·	i	-48
COc1ccc(CCC(=O)NNC(=O)c2ccccn2)cc1OC	-1	1	-3	·	-39
COc1ccc(C(=O)NCC2(c3ccccc3)CCCC2)c(OC)c1	-4	-17	-4	i	14

Other records
SMILES | MT1-MMP act inh | MT1-MMP act inh RFP | UUG fidelity | CSC inhib | Rce1 inhib | Env fusion inh | eIF4H inh | PABP FP inh
Cc1nn(-c2nc3ccccc3n2Cc2ccccc2)c2c1C(=O)CC(C)(C)C2 | 1 | -8 | -11 | 49 | i | · | -9 | -5
Cc1ccc(NC(=O)C2CCCN(S(=O)(=O)c3ccc4[nH]c(=O)ccc4c3)C2)cc1C (stereo not given) | -8 | -9 | -10 | · | i | 19 | 4 | 13
COc1ccc(OC)c(NC(=O)CCN2CCN(c3ccccc3OC)CC2)c1 | -4 | -4 | -18 | 0 | i | 12 | -2 | -5
CC1CN(C(=O)COC(=O)c2cc([N+](=O)[O-])ccc2Cl)CC(C)O1 (stereo not given) | 2 | 6 | · | -8 | · | 15 | -5 | 13
CSc1nc(-c2ccc(Cl)cc2)nn1C(=O)c1ccccc1 | 5 | 7 | 3 | -11 | i | -17 | -8 | -4
OCC1(Cc2ccccc2C(F)(F)F)CCN(Cc2ccncc2)CC1 | 5 | -1 | -13 | · | i | -2 | 9 | 5
CCOC(=O)c1sc(=N)n(-c2ccc(OC)cc2)c1C | 5 | 0 | · | 16 | i | · | 0 | 3
Cc1ccc(N(CC(O)CN(C)C)S(=O)(=O)c2ccccc2)cc1 (stereo not given) | -2 | -3 | 3 | -3 | i | · | -5 | -16
CNc1nc(NCCOc2ccccc2Cl)c2sccc2n1 | 2 | -13 | -9 | · | · | 31 | · | ·
CCOC(=O)c1cc(-c2ccco2)nc2c1c(C)nn2-c1ccccc1 | 4 | 5 | -18 | 1 | i | · | 36 | 4
CCc1ccc(CN(C)Cc2nc(Cc3ccc(OC)c(OC)c3)no2)nc1 | 0 | 3 | · | -8 | i | -5 | 1 | 1
O=C(NCc1ccc2c(c1)OCO2)c1ccc(Cl)c(S(=O)(=O)NCc2ccccc2)c1 | 0 | -8 | 9 | -3 | i | · | -7 | -3

The list goes on; it opens with the 3 that closed the last part.
SMILES | MT1-MMP act inh | MT1-MMP act inh RFP | UUG fidelity | CSC inhib | Rce1 inhib | Env fusion inh | eIF4H inh | PABP FP inh
CCOC(=O)c1cc(-c2ccco2)nc2c1c(C)nn2-c1ccccc1 | 4 | 5 | -18 | 1 | i | · | 36 | 4
CCc1ccc(CN(C)Cc2nc(Cc3ccc(OC)c(OC)c3)no2)nc1 | 0 | 3 | · | -8 | i | -5 | 1 | 1
O=C(NCc1ccc2c(c1)OCO2)c1ccc(Cl)c(S(=O)(=O)NCc2ccccc2)c1 | 0 | -8 | 9 | -3 | i | · | -7 | -3
COc1ccc(CNCc2c(O)c(Cl)cc3c(C)c(C)c(=O)oc23)c(OC)c1 | 5 | 5 | 2 | 3 | i | -3 | -10 | -4
Cc1cc(C)c(C(=O)NC2CCCc3c2cnn3-c2ccc(C)c(C)c2)c(=O)[nH]1 (stereo not given) | 4 | -6 | 3 | -16 | i | -9 | -5 | -3
COc1cc(OC)c(OC)cc1CN1CCN(Cc2cccn2C)CC1 | 0 | 1 | 1 | -14 | i | -13 | 25 | 3
Cc1ccccc1NS(=O)(=O)c1cc(C(N)=O)ccc1C | 2 | 1 | 2 | · | i | · | -10 | -6
CCOC(=O)C1=C[C@@H](CC)N(S(=O)(=O)c2ccc(C)cc2)[C@H]1c1cccs1 | -7 | -14 | 9 | · | · | 26 | · | ·
CCOC(=O)[C@@H]1[C@H]2COc3ccccc3[C@@H]2N2C(=O)N(c3ccc(C(F)(F)F)cc3)C(=O)[C@]12C | -2 | -3 | -27 | 14 | i | 5 | · | ·
COc1ccccc1CN1CC(C(=O)N2CCN(c3ccc(F)cc3)CC2)CC1=O (stereo not given) | 3 | 1 | 6 | -5 | i | · | -8 | 6
CC(C)Oc1ccc(CNC(=S)N/N=C/c2cccnc2)cc1 | 3 | -13 | -35 | 25 | i | · | -6 | -7
O=C([C@H](Cc1ccccc1)NS(=O)(=O)c1ccc(Cl)cc1)N1CC[C@@]2(O)CCCC[C@H]2C1 | -1 | -2 | -5 | 2 | i | · | 5 | -7
CCCCn1c(=N)n(CC(O)COc2ccc(C)cc2)c2ccccc21 (stereo not given) | -14 | -11 | 0 | 16 | i | -29 | -6 | -11
C=CCOc1ccc(CNCC2CCCO2)cc1 (stereo not given) | -6 | 1 | 4 | -4 | i | -6 | 2 | -2

No new results follow: 4 of the compounds above.
SMILES | MT1-MMP act inh | MT1-MMP act inh RFP | UUG fidelity | CSC inhib | Rce1 inhib | Env fusion inh | eIF4H inh | PABP FP inh
CCOC(=O)[C@@H]1[C@H]2COc3ccccc3[C@@H]2N2C(=O)N(c3ccc(C(F)(F)F)cc3)C(=O)[C@]12C | -2 | -3 | -27 | 14 | i | 5 | · | ·
COc1ccccc1CN1CC(C(=O)N2CCN(c3ccc(F)cc3)CC2)CC1=O (stereo not given) | 3 | 1 | 6 | -5 | i | · | -8 | 6
CC(C)Oc1ccc(CNC(=S)N/N=C/c2cccnc2)cc1 | 3 | -13 | -35 | 25 | i | · | -6 | -7
O=C([C@H](Cc1ccccc1)NS(=O)(=O)c1ccc(Cl)cc1)N1CC[C@@]2(O)CCCC[C@H]2C1 | -1 | -2 | -5 | 2 | i | · | 5 | -7

A portion of the library. The share of hits here may be higher or lower than overall.
